Source: PubChem BioAssay (National Center for Advancing Translational Sciences (NCATS))
gsp antagonist: antagonizes gsp, the McCune-Albright syndrome mutation. gsp-mutant cells, cAMP HTRF, 30 min; control for the full effect not named in the record. Potency, µM (top dose mostly 76.9 µM), for the others: top-dose activity change, negative = inhibition, most hits filed as inhibitors. hit rate 0.4% among 340,000; active = falling curve of any shape with a large fitted effect; inconclusive = falling curve, mostly with a smaller effect; inactive = flat or rising curve; cell line not stated here;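 also: intracellular cAMP measured with PDE inhibitor Ro 20-1724 present during compound exposure; potency is read from the fitted curve at half-maximal effect; % is scaled to controls: 0 for no effect and ±100 for the full control effect; nearly all actives have a fitted effect of over 65% in size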
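Measurement of cellular cAMP by homogeneous time-resolved fluorescence following a 30 min compound exposure at 37C. The PDE inhibitor […] was present throughout; the assay buffer was DPBS with 0.05% BSA and 0.005% Tween 20.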
TRPML1 inh: human mucolipin-1 channel inhibition | Q9GZU1 | hit rate 0.02% among 390,000 | activity change, negative = inhibition, % (concentration not given with the values) | AID 624415 | TRPML1-inducible cells, Ca2+ dye fluorescence, FDSS; stronger effect = lower value; inhibition of EC80 agonist-evoked calcium signal; in the data active means activity change below about -50%; inconclusive means about -30% to -50%; inactive means above about -30%;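 also: stimulus is agonist 54-4 at its EC80 concentration; % is scaled to controls: 0 for no effect and ±100 for the full control effect; compound concentration not given in the record; the text of the record puts the active cut at -80%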
Target sequence (Q9GZU1 whole entry, looked up): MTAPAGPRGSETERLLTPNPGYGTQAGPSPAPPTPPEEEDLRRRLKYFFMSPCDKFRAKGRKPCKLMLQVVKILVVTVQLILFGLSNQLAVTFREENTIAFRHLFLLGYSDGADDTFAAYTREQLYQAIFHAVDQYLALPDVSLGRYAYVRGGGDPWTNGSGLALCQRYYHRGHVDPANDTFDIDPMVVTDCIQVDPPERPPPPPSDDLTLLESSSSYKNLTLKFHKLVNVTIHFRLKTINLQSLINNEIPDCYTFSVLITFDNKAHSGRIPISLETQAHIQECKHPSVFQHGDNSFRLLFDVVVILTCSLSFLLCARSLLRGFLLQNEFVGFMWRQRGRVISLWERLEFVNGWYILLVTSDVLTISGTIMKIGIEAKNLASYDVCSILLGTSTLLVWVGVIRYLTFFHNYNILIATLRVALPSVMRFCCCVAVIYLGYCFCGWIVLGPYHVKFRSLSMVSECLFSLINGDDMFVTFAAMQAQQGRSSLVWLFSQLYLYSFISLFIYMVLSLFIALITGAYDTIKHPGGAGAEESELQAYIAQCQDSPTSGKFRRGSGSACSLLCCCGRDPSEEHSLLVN
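TRPML1-DL cells, Tet-induced overnight (~16 h, 37 °C) at 1,500 cells/well, were loaded with Ca8 no-wash dye plus quencher for 45-90 min at room temperature. Compounds were pinned during FDSS kinetic reading; agonist 54-4 at EC80 (4 uM final) then added.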
TRPML1 agonist: activates the human TRPML1 channel | Q9GZU1 | TRPML1-expressing cells, Ca2+ dye fluorescence, FDSS; host cell line not named in the record; reference of the full effect not given here | activation, % (concentration not given with the values) | hit rate 0.12% among 410,000; in the data active = activation above about 50%; inconclusive = about 30% to 50%; inactive = below about 30%; also: 0% is about no effect; the text of the record puts the active cut at 80%
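Tetracycline-induced TRPML1-DL cells are seeded and incubated overnight before loading with a no-wash Ca2+ dye and quencher. Agonist activity is taken from the 110 s fluorescence read following compound pin-transfer on an FDSS, before EC80 54-4 challenge.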
gsp agonist: agonists of gsp mutant (McCune-Albright syndrome); gsp mutant cells, cAMP HTRF, 30 min; control for the full effect not named in the record; Potency, µM (doses to about 76.9 µM), without a hit: top-dose activation (cAMP increase), actives largely listed as activators; hit rate 0.13% among 340,000; active = well fitted activation curve with a large enough effect; inconclusive = small, poorly fitted or top-dose-only effect, or another doubt; inactive = no such curve, though single readings can be large or run the other way; cell line not stated here;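 also: phosphodiesterase inhibitor Ro 20-1724 added with compounds to block cAMP breakdown; potency is read from the fitted curve at half-maximal effect; nearly all actives have a fitted effect of over 60% in size; about a fifth of the inactives were tested at one dose only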
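Cells stably selected in G418 were plated at 2000/well, grown 16-24 hr, then given compounds in DMSO with the PDE inhibitor […] (300 uM solution added) for 30 min at 37C; cAMP was read by HTRF.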
ClpP mod: qHTS Assay for Activators of ClpP; purified B. subtilis ClpP, FRET peptide cleavage, 20 min; Potency, µM (series often up to 57.5 µM), without a hit: at the highest dose activity change, negative = active; hit rate 1.9% among 340,000; AID 651965, 2013; active = well fitted falling curve with a large enough effect; inconclusive = small, poorly fitted or top-dose-only effect; inactive = no such curve, though single readings can be large or run the other way; also: potency is read from the fitted curve at half-maximal effect; the source files actives as falling curves though it sought activators and does not explain the sign; nearly all actives have a fitted effect of over 65% in size; many hits overshoot -100%
Target sequence (P80244 whole entry, looked up): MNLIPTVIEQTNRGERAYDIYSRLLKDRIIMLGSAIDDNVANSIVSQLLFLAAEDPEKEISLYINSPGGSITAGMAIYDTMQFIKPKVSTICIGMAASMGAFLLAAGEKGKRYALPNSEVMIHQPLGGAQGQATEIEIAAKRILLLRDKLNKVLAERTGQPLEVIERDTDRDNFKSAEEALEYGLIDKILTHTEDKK
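FRET quenching reversal measured ClpP activation: 10 microg/mL B. subtilis ClpP at pH 8 with the FRET-FV decapeptide, read at 430 nm after 320 nm excitation. The 20-min minus 0-min signal was scaled between DMSO/no-enzyme wells and ADEP (5.8 microM final).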
Menin MLL FP FL: menin-MLL binding inhibition, fluorescein peptide. 290,000 tested, under 10 active. Fluorescence polarization, fluorescein-MLL peptide displacement from menin. FP activity change, % at 61.4 µM. AID 1766; inconclusive = falling polarisation curve, or a change in total fluorescence; inactive = total fluorescence flat and polarisation flat or rising; no compound was filed as active; the % refers to the polarisation; negative = inhibition;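 also: % of control where 0% means no effect; inhibitors lower the polarisation; unlabelled MLL peptide was the positive control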
* marks the source's active call; other numbers are inactive results; ? = inconclusive; . = no result given; [ ] = another dose, or the depositor's remark. Rows are unselected, and some 2.1% of all compounds hit somewhere here.

Values in the order: gsp antagonist	TRPML1 inh	TRPML1 agonist	gsp agonist	ClpP mod	Menin MLL FP FL
[1] COc1cc2c(cc1OC)C(COc1ccccc1OC)N(C(=O)c1ccc(S(=O)(=O)N3CCCC3)cc1)CC2 (configuration not stated)
  .	20	0.3	.	-3.9%	.
[2] COCc1ccc(C(=O)N(C)CC2CCCN(CCc3ccc(Cl)cc3)C2)o1 (configuration not stated)
  -8%	4	0.0	?	1.4%	.
[3] CC/S(=N\S(=O)(=O)c1ccc(C)cc1)c1ccccc1 (configuration not stated)
  4%	3	-0.6	4%	-0.9%	0.3
[4] CCc1cccc(C)c1NC(=O)CSc1nnc(N)s1
  .	-8	-0.5	.	-0.2%	.
[5] CCCC(C)c1nnc(NC(=O)C2CC(=O)N(c3ccc(OCC)cc3)C2)s1 (configuration not stated)
  ?	-10	0.0	3%	.	-1.1
[6] CCO[C@H]1OC(C(=O)N2CCCCCCC2)=C[C@@H](c2coc3ccccc3c2=O)[C@@H]1CCCO
  -11%	37	1.3	.	1.0%	3.7
[7] O=C(c1cc(F)c(F)cc1Cl)N1CCOCC1
  4%	-5	1.8	-1%	1.0%	2.1
[8] CC1=C(c2ccc(C)c(C)c2)S(=O)(=O)N=C1N1CCC(C(=O)NCCc2ccc(Cl)cc2)CC1
  .	-1	0.2	.	3.3%	.
[9] CCOc1ccc(-c2nc3c(c(SCC(=O)N4CCCCC4)n2)Cc2cc(C)ccc2O3)cc1
  .	-18	0.0	.	-2.9%	.
[10] CN(C)S(=O)(=O)c1cccc(NC(=S)N/N=C/c2cc(Br)ccc2O)c1
  50µM*	-2	0.6	-4%[15.4 µM]	.	2.1
[11] CC(C)CC(=O)/C(=C\c1ccc(Cl)cc1Cl)n1cncn1
  7%	-4	5.5	17%	-0.2%	3.8
[12] CCN(CC(=O)Nc1ccc2c(c1)OCCO2)S(=O)(=O)c1ccc(C)cc1
  -16%	-4	0.2	-43%	-3.4%	2.0
[13] O=C(NNC(=O)c1cccc([N+](=O)[O-])c1)c1ccncc1
  .	11	0.1	14%[15.4 µM]	.	0.3
[14] CCc1noc(C)c1C(=O)OCC(=O)Nc1ccc2c(c1)OCO2
  5%	11	-1.4	-3%	0.4%	.
[15] N#C/C(=C(/O)CN1CCOCC1)c1nc(-c2ccccc2)cs1
  -17%	7	-0.5	-5%	-0.1%	4.3
[16] O=C(Nc1ccccc1)/C(=C/c1ccccc1)NC(=O)c1ccco1
  11%	-7	0.3	-17%	1.9%	-3.5
[17] Cc1cc(=O)c(C(=O)Nc2cccc(N3CCCC3=O)c2)nn1-c1ccccc1Cl
  3%	35	0.8	-17%	-3.9%	.
[18] Nc1cc(N)nc(SCC(=O)N2CCCCC2)n1
  3%	7	1.4	-20%	-5.4%	1.9
[19] COc1ccc(C(=O)N2CCCCC2)cc1S(=O)(=O)Nc1cccc(C(=O)O)c1
  4%	2	0.0	-21%	-1.7%	4.6
[20] CCOC(=O)C1CCCN(C(=O)CCCOc2cc(=O)n(C)c3ccccc23)C1 (configuration not stated)
  -2%	12	1.1	30%	5.4%	1.4
[21] CC(CCc1ccccc1)NC(=O)C1CCN(C(=O)c2sccc2-n2cccc2)CC1 (configuration not stated)
  -12%	12	1.1	-59%[inhibitor]	-0.3%	2.2
[22] CC1(c2ccc(Cl)cc2Cl)NC(=O)N(CC(=O)N2CCN(C(=O)c3ccco3)CC2)C1=O (configuration not stated)
  10%	-3	1.2	-33%[inhibitor]	-1.5%	.
[23] Cc1ccc(-n2c(C)cc(C(=O)CN3CCOCC3)c2C)cc1
  3%	14	-1.1	3%[15.4 µM]	.	-0.6
[24] CC(=O)Nc1cc(-c2ccc(Cl)cc2)nn1-c1ccccc1
  -14%	15	0.9	0%	-1.1%	2.9
[25] CCOc1cc(C(=O)N2CCCN(C)CC2)cc(OCC)c1OCC
  6%	-8	1.0	0%[15.4 µM]	25%	-0.4
[26] O=C(Nc1cccnc1)c1ccccc1-c1ccccc1
  -23%	-9	-0.1	9%	1.3%	-6.6
[27] COc1ccccc1N1CCN(C(=O)Nc2ccc([N+](=O)[O-])cc2)CC1
  5%	12	-0.2	12%[15.4 µM]	-1.6%	4.4
[28] COc1ccc(-c2nc3sc(CCNC(=O)C(=O)Nc4cccc(NC(C)=O)c4)c(C)n3n2)cc1
  .	29	2.4	.	-0.3%	.
[29] CC(C)CC1Nc2ccc(C(=O)NCCCOC(C)C)cc2NC1=O (configuration not stated)
  .	19	-0.5	.	-10%	.
[30] O=C(NCCc1csc2nc(-c3ccc(F)cc3)nn12)c1cccc(C(F)(F)F)c1
  .	13	1.0	.	-3.0%	.

With a hit mark in gsp antagonist (from the list above):
entry	molecule	gsp antagonist	TRPML1 inh	gsp agonist	Menin MLL FP FL
10	CN(C)S(=O)(=O)c1cccc(NC(=S)N/N=C/c2cc(Br)ccc2O)c1	50µM*	-2	-4%[15.4 µM]	2.1

More structures:
Values in the order: gsp antagonist	TRPML1 inh	TRPML1 agonist	gsp agonist	ClpP mod	Menin MLL FP FL
[31] Cn1c(CCN2CCOCC2)nc2cc(NC(=O)COc3ccc(Cl)cc3)ccc21
  9%	12	0.2	4%	-5.3%	0.9
[32] COc1cccc(-c2noc(CCCC(=O)NC3CCCC3)n2)c1
  -18%	2	-1.4	1%	0.1%	4.7
[33] Cc1cccc2c1-c1sc(C(=O)Nc3cccnc3)cc1CO2
  9%	11	-0.5	19%	3.6%	2.2
[34] CCc1ccc2c(CN(C)Cc3ccccc3OC)cc(=O)oc2c1
  -25%	8	3.7	-12%	.	-18
[35] Cc1ccc(OCC(=O)O/N=C(\N)Cc2cccs2)cc1C
  -24%	23	5.5	0%	-0.3%	.
[36] COc1ccc(OCc2cc(=O)[nH]c3ccccc23)cc1
  1%	17	-0.5	-3%[15.4 µM]	16µM*	2.1
[37] CNc1nc2c3ccccc3n(C(C)=O)c2s1
  -24%	11	-0.1	?	4.2%	3.9
[38] CCn1c(SCC(=O)NCc2ccco2)nnc1C1CCCC1
  5%	-9	-0.4	10%	-0.6%	0.7
[39] CS(=O)(=O)c1ccccc1C(=O)Nc1ccc(S(=O)(=O)N2CCCC2)cc1
  -11%	-1	-0.3	12%	.	.
[40] c1ccc(Cn2c(CN3CCCC3)nc3ccccc32)cc1
  1%	-10	-0.7	5%	0.3%	-0.8
[41] CCOC(=O)c1sc(NC(=O)C2CC(=O)N(c3ccc(OCC)cc3)C2)nc1C (configuration not stated)
  -15%	-12	0.9	-2%[15.4 µM]	.	.
[42] O=C(CN1CCCC1)Nc1ccc(-c2nc3cc(NC(=O)CN4CCCC4)ccc3o2)cc1
  17%	6	-0.6	3%	100%	-1.8
[43] COc1ccccc1OCC(=O)Nc1nc2c(s1)CCCC2
  3%	-4	-0.5	-1%	1.5%	.
[44] CC(Sc1nc2ccccc2s1)C(=O)NCc1ccc2c(c1)OCO2 (configuration not stated)
  -6%	-9	-0.1	18%	-10%	3.0
[45] N#C/C(=C\c1cn(CCOc2ccccc2)c2ccccc12)C(=O)NCc1ccco1
  -2%	14	1.5	1%	6.9%	0.2
[46] CC(OC(=O)C1CSC2(C)CCC(=O)N12)C(=O)Nc1ccc(F)cc1 (configuration not stated)
  8%	8	-0.3	-45%[inhibitor]	0.9%	.
[47] CC(C)c1ccc(N2CC(C)(C)C2=O)cc1
  5%	2	-0.6	2%[15.4 µM]	.	-1.0
[48] O=C(Nc1cccc(S(=O)(=O)N2CCOCC2)c1)[C@@H]1CCCN1S(=O)(=O)c1ccc(Cl)cc1
  -24%	4	1.8	10%	1.4%	0.8
[49] CCn1cc(C(=O)Nc2ccc(C)c([N+](=O)[O-])c2)cn1
  2%	1	0.2	-6%	67%	5.6
[50] CC(C)=NNc1nc(-c2ccccc2)c(C)s1
  3%	-2	-0.2	-13%	.	6.0
[51] Fc1ccccc1-n1ncc2c1ncn1nc(-c3ccccc3Cl)nc21
  .	11	0.4	.	-4.6%	.
[52] COc1ccc(OC)c(N2C(=O)CC(C(C)c3ccccc3)C2=O)c1 (configuration not stated)
  3%	0	-1.3	?	-1.0%	-2.9
[53] CCNc1nc(SCC(=O)Nc2ccc(Cl)c(Cl)c2)nc(N2CCOCC2)n1
  -20%	10	1.6	-10%	.	-0.8
[54] C[C@H](CO)N1C[C@H](C)[C@@H](CN(C)S(=O)(=O)c2cccs2)Oc2c(NC(=O)CCC(F)(F)F)cccc2C1=O
  -13%	4	-0.2	.	-4.8%	.
[55] Cc1cc(C)cc(NCC(=O)Nc2c(C)cccc2C)c1
  -1%	-7	0.8	-50%[inhibitor]	-2.5%	4.3

Retrieved one by one from the list above, three records:
Values in the order: gsp antagonist	TRPML1 inh	TRPML1 agonist	gsp agonist	ClpP mod	Menin MLL FP FL
[38] CCn1c(SCC(=O)NCc2ccco2)nnc1C1CCCC1
  5%	-9	-0.4	10%	-0.6%	0.7
[48] O=C(Nc1cccc(S(=O)(=O)N2CCOCC2)c1)[C@@H]1CCCN1S(=O)(=O)c1ccc(Cl)cc1
  -24%	4	1.8	10%	1.4%	0.8
[47] CC(C)c1ccc(N2CC(C)(C)C2=O)cc1
  5%	2	-0.6	2%[15.4 µM]	.	-1.0

Ordered by length of the SMILES (rising): part of the list above
Values in the order: gsp antagonist	TRPML1 inh	TRPML1 agonist	gsp agonist	ClpP mod	Menin MLL FP FL
[50] CC(C)=NNc1nc(-c2ccccc2)c(C)s1
  3%	-2	-0.2	-13%	.	6.0
[34] CCc1ccc2c(CN(C)Cc3ccccc3OC)cc(=O)oc2c1
  -25%	8	3.7	-12%	.	-18
[44] CC(Sc1nc2ccccc2s1)C(=O)NCc1ccc2c(c1)OCO2 (configuration not stated)
  -6%	-9	-0.1	18%	-10%	3.0
[51] Fc1ccccc1-n1ncc2c1ncn1nc(-c3ccccc3Cl)nc21
  .	11	0.4	.	-4.6%	.
[31] Cn1c(CCN2CCOCC2)nc2cc(NC(=O)COc3ccc(Cl)cc3)ccc21
  9%	12	0.2	4%	-5.3%	0.9
[45] N#C/C(=C\c1cn(CCOc2ccccc2)c2ccccc12)C(=O)NCc1ccco1
  -2%	14	1.5	1%	6.9%	0.2
[48] O=C(Nc1cccc(S(=O)(=O)N2CCOCC2)c1)[C@@H]1CCCN1S(=O)(=O)c1ccc(Cl)cc1
  -24%	4	1.8	10%	1.4%	0.8
